Screening data: PubChem, Broad Institute
Ecoli rRNA inh: inhibits bacterial ribosomal RNA function over humanized ribosomes; E. coli WT GFP vs humanized-ribosome RFP mutants, fluorescence, 24 h; active compounds read low; DMSO median 0, no signal -100; GFP signal change (wild-type ribosome), % (no concentration beside the values); 1.6% of 350,000 active;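 active = significant combined selectivity score with lowered wild-type GFP, culture density cut under 30%, mutant RFP and density less affected; inactive = any of these conditions unmet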; also: one replicate is shown; some compounds called inactive have numbers as strong as hits
MLL AF4-AF9 inh: MLL-AF4/AF9 protein interaction inhibition; inhibition, % at 10 µM; 0.47% of 350,000 active; AlphaScreen, biotin-AF4 peptide binding to FLAG-AF9; P42568; AID 651704;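 active = every replicate reaching a set inhibition limit, whatever the replicate mean, cut at about 25% in these data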;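 also: 0% = plate neutral control median and 100% = total signal loss; the record names both 10 and 1 µM as test concentration; the first replicate is given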
Target sequence (P42568 whole entry, looked up): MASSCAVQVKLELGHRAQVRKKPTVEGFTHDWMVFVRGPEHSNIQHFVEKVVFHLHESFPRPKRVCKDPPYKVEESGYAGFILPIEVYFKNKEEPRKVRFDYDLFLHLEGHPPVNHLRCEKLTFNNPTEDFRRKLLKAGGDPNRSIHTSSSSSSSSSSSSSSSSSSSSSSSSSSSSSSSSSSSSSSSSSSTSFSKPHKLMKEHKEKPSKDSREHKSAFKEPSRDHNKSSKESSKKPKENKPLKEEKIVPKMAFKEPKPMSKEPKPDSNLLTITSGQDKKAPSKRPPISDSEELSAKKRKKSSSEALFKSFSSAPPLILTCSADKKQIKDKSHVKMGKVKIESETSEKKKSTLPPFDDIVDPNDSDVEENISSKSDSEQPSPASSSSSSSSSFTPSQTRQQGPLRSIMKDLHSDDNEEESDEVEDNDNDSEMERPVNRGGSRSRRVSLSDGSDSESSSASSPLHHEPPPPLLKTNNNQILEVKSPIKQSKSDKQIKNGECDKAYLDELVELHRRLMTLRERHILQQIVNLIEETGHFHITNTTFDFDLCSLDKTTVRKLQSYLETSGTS
FGF22 binding: shifts melting point of recombinant human FGF22. Q9HCT0. recombinant FGF22 thermal shift, SYPRO orange fluorescence; percent of sucrose octasulfate shift, DMSO zero. calls only at 9.99 µM. 1.5% of 340,000 active. AID 651658;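 active = melting point raised past a set limit in the mean and every replicate; three in four hits are not shown here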
Target sequence (Q9HCT0 whole entry, looked up): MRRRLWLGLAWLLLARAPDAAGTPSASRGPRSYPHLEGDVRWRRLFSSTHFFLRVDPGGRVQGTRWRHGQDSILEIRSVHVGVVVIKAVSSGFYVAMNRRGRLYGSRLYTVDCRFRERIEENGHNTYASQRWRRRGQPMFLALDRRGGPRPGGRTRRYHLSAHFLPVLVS
Ecoli rRNA inh OD600: second read-out of Ecoli rRNA inh, no call of its own (marks repeat the call); OD600 change, %; measured here: OD600 growth;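 optical density of the mix in the first replicate; 0 = DMSO median and -100 = no signal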
Ecoli rRNA inh RFP: recorded beside Ecoli rRNA inh, whose call it bears; RFP signal change, %; measured here: RFP humanized mutant strains;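 first replicate; 0 = DMSO median and -100 = no signal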
* hit, by the source's call; i = inactive; & = joins results of further samples. An excerpt; count on the stated rates, not on these rows.

Each structure is followed by: Ecoli rRNA inh OD600 | MLL AF4-AF9 inh | Ecoli rRNA inh | Ecoli rRNA inh RFP | FGF22 binding
- C[C@H]1CN([C@@H](C)CO)C(=O)Cc2cc(NC(=O)C3CCCCC3)ccc2O[C@@H]1CN(C)Cc1ccc2c(c1)OCO2
    -2.3 | 0.0 | -1.4 | 0.5 | i
- COc1ccc2c3c([nH]c2c1)[C@@H](CO)N(Cc1ccccc1)CC31CCN(S(C)(=O)=O)CC1
    5.0 | -4.0 | 3.9 | -3.2 | i
- CNC[C@@H]1Oc2ccc(NS(=O)(=O)c3cn(C)cn3)cc2C(=O)N([C@H](C)CO)C[C@H]1C
    0.7 | -4.3 | 0.3 | 0.1 | i
- NC1(CO)COC(c2ccccc2)OC1 (stereo not given)
    9.6 | -2.9 | 2.8 | -3.4 | i
- CCC(=O)N[C@@H]1CC[C@H](CCn2cc(CN(C)C)nn2)O[C@@H]1CO
    -1.4 | -1.0 | 0.5 | 0.9 | i
- Cc1ccc(C)c(CC(=O)N2CCCC(c3cc(C(=O)Nc4ccc5c(c4)OCO5)no3)C2)c1 (stereo not given)
    -5.6 | 2.1 | -6.4 | 6.7 | i
- C[C@H](CO)N1C[C@H](C)[C@H](CN(C)S(=O)(=O)c2cccs2)Oc2ncc(Br)cc2C1=O
    5.5&2.3 | 0.1&-1.8 | 8.3&0.0 | 2.2&-3.9 | i
- COc1ccc(S(=O)(=O)N(C)C[C@@H]2Oc3ccc(NS(=O)(=O)c4ccc(Cl)cc4)cc3C(=O)N([C@@H](C)CO)C[C@H]2C)cc1
    -7.9 | -9.3 | -1.8 | 1.9 | i
- C=CCSc1nc2c(N)ncnc2n1C1OC(CO)C(O)C1O (stereo not given)
    10.0 | -1.4 | 2.1 | -0.5 | i
- C[C@H](CO)N1C[C@H](C)[C@@H](CN(C)C(=O)Nc2cc(F)ccc2F)Oc2ncc(-c3cccc(F)c3)cc2C1=O
    -2.6 | 2.2&-0.7&-1.3 | -1.2 | 0.0 | i
- C[C@H]1CN([C@@H](C)CO)C(=O)c2cc(/C=C/c3ccccc3)cnc2O[C@H]1CN(C)Cc1ccc2c(c1)OCO2
    -24.9 | 1.6 | -4.6 | 9.9 | i
- COc1cccc(C#Cc2ccc3c(c2)O[C@@H](CN(C)S(=O)(=O)c2ccccc2F)[C@@H](C)CN([C@@H](C)CO)S3(=O)=O)c1
    9.9 | -2.3 | 2.4 | -1.5 | i
- CC(C)NC(=O)Nc1ccc2c(c1)C(=O)N([C@@H](C)CO)C[C@@H](C)[C@@H](CN(C)C(=O)NC1CCCCC1)O2
    -3.6 | -24.1 | 0.1 | 0.0 | i
- O=C(NCC[C@H]1CC[C@H](NC(=O)c2ccc3c(c2)OCO3)[C@@H](CO)O1)Nc1cc(F)ccc1F
    -9.1 | 2.6 | -5.0 | 0.7 | i
- COc1ccc(-c2ccc3c(c2)c(Sc2ccccc2)c(-c2ccccc2)n3C)cn1
    20.1 | 0.5 | 31.6 | 2.6 | i
- O=C(C[C@H]1CC[C@@H]2[C@H](COC[C@@H](O)CN2C(=O)Cc2ccccc2)O1)NC1CCC1
    11.5 | -0.4 | 0.6 | -5.8 | i
- NC(=O)CCC(NC(=O)OCc1ccccc1)C(=O)OCC(=O)c1ccccc1 (stereo not given)
    12.5 | 1.4 | 10.1 | 5.6 | i
- C[C@H](NC(=O)[C@@H]1CCCN1C(=O)[C@@H]1CCCN1C(=O)c1ccc(Cl)cc1)c1ccccc1
    8.9 | 0.9 | 7.4 | 1.3 | i
- CC(C)(C)n1nc(C2CC2)cc1NC(=O)Nc1ccccc1
    1.0 | 12.9 | 0.1 | 1.6 | i
- Cc1cc2nc(-c3ccccc3O)[nH]c2cc1C
    21.2 | 0.9 | 13.0 | 3.3 | i
- CNC[C@H]1OCCCC[C@H](C)Oc2ccc(NC(=O)Nc3ccccc3)cc2C(=O)N([C@H](C)CO)C[C@H]1C
    5.7 | 1.0 | 6.5 | -2.0 | i
- Cc1ccc(S(=O)(=O)N2C[C@H]3C(=O)C[C@@H](c4cccc(Cl)c4)N(S(=O)(=O)c4ccc(C)cc4)[C@H]3C[C@H]2c2ccc(Cl)cc2)cc1
    16.3 | 1.4 | 5.3 | -0.9 | i
- CC=Cc1ccc2n(c1=O)C[C@H]1[C@H](CO)[C@@H](C(=O)Nc3ccc(-c4ccccc4)cc3)N(C)[C@@H]21 (mixture of isomers)
    -65.8 | 9.2 | -37.0 | 29.1 | i
- O=C(C[C@H]1CC[C@@H](NC(=O)c2cccc(F)c2)[C@H](CO)O1)NCc1ccc(Oc2ccccc2)cc1
    -4.2 | -0.2 | -4.0 | -4.3 | i
- CC1CCN(C(=O)c2ncn3c2c(=O)[nH]c2ccccc23)CC1
    10.6 | 1.1 | 6.9 | -5.1 | i
- C[C@H]1CN([C@@H](C)CO)C(=O)c2ccccc2-c2ccccc2CO[C@@H]1CN(C)C(=O)[C@H]1CCCN1C
    1.6 | -1.1 | -0.6 | -0.1 | i
- O=C(NC(c1ccccc1)c1cnccn1)C1CCN(CCOc2ccc(Cl)cc2Cl)CC1 (stereo not given)
    -34.3 | 8.1 | 1.7 | 14.4 | i
- CC(C)c1cn(CC[C@@H]2CC[C@H](NC(=O)c3cccc(F)c3)[C@H](CO)O2)nn1
    3.7 | 2.9 | 0.5 | -2.3 | i
- C[C@@H]1CN([C@H](C)CO)C(=O)c2cc(NC(=O)Nc3ccc4c(c3)OCO4)ccc2O[C@H]1CN(C)C(=O)NC1CCCCC1
    1.7 | 0.3 | 0.0 | -1.9 | i
- CC(C)C(=O)Nc1ccc2c(c1)C(=O)N(C)[C@@H]1CC[C@@H](CC(=O)NCc3ccc(F)cc3)O[C@@H]1CO2
    -2.4 | 0.0 | -2.2 | -0.3 | i

Reprinted from the part before: 2 entries, then new ones.
Each structure is followed by: Ecoli rRNA inh OD600 | MLL AF4-AF9 inh | Ecoli rRNA inh | Ecoli rRNA inh RFP | FGF22 binding
- C[C@@H]1CN([C@H](C)CO)C(=O)c2cc(NC(=O)Nc3ccc4c(c3)OCO4)ccc2O[C@H]1CN(C)C(=O)NC1CCCCC1
    1.7 | 0.3 | 0.0 | -1.9 | i
- CC(C)C(=O)Nc1ccc2c(c1)C(=O)N(C)[C@@H]1CC[C@@H](CC(=O)NCc3ccc(F)cc3)O[C@@H]1CO2
    -2.4 | 0.0 | -2.2 | -0.3 | i
- COc1ccc(CN(C)C[C@@H]2Oc3ccc(NC(=O)Nc4c(C)noc4C)cc3C(=O)N([C@H](C)CO)C[C@@H]2C)cc1
    6.2 | -4.1 | 3.1 | -0.1 | i
- CCCCCC(=O)N1C[C@@H](n2cc(-c3ccc(F)cc3)nn2)[C@H](O)C[C@@H]1c1ccccc1
    -30.0 | 2.2 | -9.1 | -1.4 | i
- COCC(=O)N1C[C@H](C)[C@@H](OC)CN(C)C(=O)c2cc(NC(=O)C3CCC3)ccc2OC[C@H]1C
    6.5 | -1.6 | 3.7 | -2.4 | i
- COCCNC(=O)C1(C)CCCN(C(=O)c2cccc(OC(F)(F)F)c2)C1 (stereo not given)
    8.4 | -1.2 | -1.7 | -2.7 | i
- O=C(C[C@H]1C=C[C@@H](NC(=O)Nc2cc(F)ccc2F)[C@H](CO)O1)Nc1ccc(-c2ccccc2)cc1
    -2.5 | -1.3 | -5.5 | 4.7 | i
- COc1ccc2c3c(n(C)c2c1)[C@@H](CO)N(C(=O)CN1CCOCC1)CC31CCN(C(=O)Nc2cccc(F)c2)CC1
    -3.6 | 3.3 | -0.3 | -2.4 | i
- CCCNC(=O)C[C@H]1CC[C@@H]2[C@H](COC[C@H](O)CN2C(=O)c2cc(Cl)cc(Cl)c2)O1
    -4.6 | -2.3 | -1.2 | -0.1 | i
- CS(=O)(=O)N1[C@H](CO)[C@H](c2ccc(-c3ccccc3F)cc2)[C@@H]1C#N
    -3.9 | -0.1 | -0.2 | 3.4 | i
- CCOC(=O)C1=CC[C@@H](c2ccccc2)N(S(=O)(=O)c2ccc(C)cc2)[C@H]1C#N
    11.9 | 4.4 | 12.4 | 2.0 | i
- C[C@@H](NC(=O)[C@@H]1[C@@H](CO)[C@@H]2Cn3c(ccc(-c4ccccc4)c3=O)[C@@H]2N1C)c1ccccc1
    -4.0 | -1.6 | -1.6 | -0.2 | i
- C=CCN1C=C(C(=O)c2ccccc2)C(=O)CC1
    9.1 | -1.9 | 16.6 | 0.2 | i
- C[C@H]1CN([C@@H](C)CO)C(=O)c2cc(-c3ccccc3)cnc2O[C@@H]1CN(C)C(=O)c1cccnc1
    1.9 | -0.9 | 3.9 | -2.1 | i
- O=C(C[C@H]1C=C[C@H](NC(=O)c2ccncc2)[C@@H](CO)O1)NCC1CCCCC1
    -5.9 | -0.6 | 0.1 | 0.6 | i
- CO[C@H](CN(C)C(=O)c1ccc2c(c1)OCO2)[C@H](C)CN([C@H](C)CO)S(=O)(=O)c1ccccc1
    -2.4 | -1.3 | 2.0 | -4.4 | i
- C[C@H]1CCCCO[C@H](CN(C)C)[C@@H](C)CN([C@@H](C)CO)C(=O)c2cc(NC(=O)Cc3ccccc3)ccc2O1
    18.5 | -2.6 | 4.8 | -1.2 | i
- CC(=O)OC[C@@H]1CN(Cc2ccccc2)C[C@H](n2ccc3c(N)ncnc32)O1
    11.1 | -1.2 | 12.6 | 1.9 | i
- COc1cc(N=Nc2ccc(C)cc2S(N)(=O)=O)c(C)cc1N
    1.3 | 16.2 | -18.9 | 27.2 | i
- Cc1cccc(S(=O)(=O)NC(=O)C2(C)CCN2C(=O)C2(c3ccc(Cl)cc3)CCC2)c1 (stereo not given)
    -21.9 | 7.5 | -25.1 | 1.2 | i
- O=C(C[C@H]1CC[C@H](NS(=O)(=O)c2cccc(F)c2)[C@H](CO)O1)N1CCCCC1
    9.8 | -2.5 | 2.2 | 2.2 | i
- C[C@H]1CN([C@@H](C)CO)C(=O)CCCn2nncc2CO[C@H]1CN(C)Cc1ccccc1C(F)(F)F
    -15.8 | -0.9 | -4.8 | 2.7 | i
- COC(=O)C1=C(O)/C(=C/c2ccc(OCC(=O)Nc3ccc(OC)cc3)cc2)N=C1C
    4.9 | 1.2 | 7.0 | -2.4 | i
- C[C@H](CO)N1C[C@H](C)[C@@H](CN(C)C(=O)Nc2ccccc2)OCCCC[C@H](C)Oc2ccc(NS(=O)(=O)c3cn(C)cn3)cc2C1=O
    6.4 | -5.1 | 2.9 | -1.8 | i
- Cc1ccc(S(=O)(=O)Nc2ccc3c(c2)C(=O)N([C@@H](C)CO)C[C@H](C)[C@@H](CN(C)S(=O)(=O)c2ccc(F)cc2)OCCCC[C@@H](C)O3)cc1
    -5.7 | -1.5 | 0.7 | -0.1 | i
- O=C(C[C@H]1CC[C@@H]2[C@H](COC[C@@H](O)CN2C(=O)c2ccccc2)O1)N1CCOCC1
    1.6 | -1.4 | -0.3 | 3.4 | i
- COC(=O)CCCn1cc(CN2CC(N3CCCCC3)CS2(=O)=O)nn1 (stereo not given)
    9.4 | -1.1 | 5.6 | -3.4 | i
- C[C@H]1CN([C@@H](C)CO)C(=O)Cc2cc(NS(=O)(=O)c3cn(C)cn3)ccc2O[C@@H]1CN(C)S(=O)(=O)c1cccs1
    0.5 | -3.2 | 0.2 | 0.1 | i
- COc1ccc2c3c([nH]c2c1)[C@H](CO)N(Cc1nccs1)CC31CCN(Cc2cncnc2)CC1
    -4.0 | 0.9 | -2.6 | 3.9 | i
- CN(C)c1ccc2cc(S(=O)(=O)O)cc(O)c2c1
    7.9 | -0.3 | 0.7 | 1.8 | i
- COc1ccc(NC(=O)Nc2ccc3c(c2)C(=O)N([C@H](C)CO)C[C@H](C)[C@@H](CN(C)Cc2ccncc2)OCCCC[C@H](C)O3)cc1
    2.8 | 1.3 | -2.0 | -0.2 | i
- COCC(=O)N1C[C@@H]2[C@H](c3ccccc31)[C@@H](CO)N2C(=O)Nc1ccccc1F
    3.3 | -13.1 | -0.2 | -3.1 | i
- COc1cccc(S(=O)(=O)N2CCCCN3[C@@H](CO)[C@@H](c4ccc(-c5ccccc5)cc4)[C@@H]3C2)c1
    -19.9 | 0.7 | -19.4 | -2.2 | i
- C[C@H]1CN([C@@H](C)CO)C(=O)c2cccc(NC(=O)C3CCCCC3)c2O[C@H]1CN(C)Cc1ccc(Oc2ccccc2)cc1
    -21.6 | 6.2 | 3.4 | -3.8 | i
- COc1ccc2c3c([nH]c2c1)[C@H](CO)N(Cc1ccccc1OC)CC31CN(S(=O)(=O)c2ccccc2)C1
    4.8 | 1.3 | -3.1 | 4.5 | i
- CCCC#Cc1ccc2c(c1)O[C@H](CN(C)C(=O)Nc1ccc(OC)cc1)[C@@H](C)CN([C@H](C)CO)S2(=O)=O
    -12.3 | -0.1 | -1.6 | 6.9 | i
- CC(C)CC#Cc1ccc2c(c1)O[C@H](CN(C)C(=O)NC1CCCC1)[C@@H](C)CN([C@H](C)CO)S2(=O)=O
    -6.1 | 3.2 | 3.6 | -2.0 | i
